HPGD inh – qHTS Assay for Inhibitors of HPGD (15-Hydroxyprostaglandin Dehydrogenase); 150,000 tested, 4.3% active; 15-hydroxyprostaglandin dehydrogenase [NAD(+)] (Homo sapiens), P15428; purified HPGD, NADH fluorescence kinetic, PGE2 substrate; AID 894, 2007; Potency, µM, for the others: at the highest dose activity change, negative = inhibition, most hits filed as inhibitors; active = well fitted inhibition curve with a large enough effect (not every such curve was filed as active); inconclusive = small, poorly fitted or top-dose-only effect, or another doubt; inactive = no such curve, though single readings can be large or run the other way;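 note: top concentration of the series not given in the record; plate controls included wells without enzyme; inactives centre near -10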
Target sequence (P15428 whole entry, looked up): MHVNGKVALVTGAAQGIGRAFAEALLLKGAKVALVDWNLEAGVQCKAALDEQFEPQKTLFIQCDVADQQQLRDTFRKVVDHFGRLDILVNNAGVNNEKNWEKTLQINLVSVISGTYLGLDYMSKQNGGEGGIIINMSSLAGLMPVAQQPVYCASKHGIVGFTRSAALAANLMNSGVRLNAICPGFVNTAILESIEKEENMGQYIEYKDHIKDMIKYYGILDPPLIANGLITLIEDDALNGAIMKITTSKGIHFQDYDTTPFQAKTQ
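NADH formation kinetics: reaction with 30 uM PGE2 and 1 mM NAD+ (final), 20 nM enzyme, Tris-HCl pH 8 with Tween 20, after 15 min compound preincubation at room temperature. Fluorescence change, last versus first of five reads.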
* hit, by the source's call; & = joins results of further samples. % is set by controls: 0 for no effect and ±100 for the full control effect; potency is the fitted concentration of half-maximal effect. Not all compounds are listed; rates above refer to the full screens.

Start of the data: the first three entries, ahead of the listing:
For COc1ccc(S(=O)(=O)N2CCC(C(=O)N3CCCC3)CC2)cc1 the results were HPGD inh -10.5%.
`COc1ccc(NC(=O)/C(Cl)=C(/Cl)S(=O)(=O)Cc2ccccc2)cn1` gave HPGD inh -27.1%.
Cc1ccnc2nc(C(=O)Nc3nnc(CC(C)C)s3)nn12 was read as HPGD inh -8.9%.

All compounds of this part, previewed entries included:
For COc1ccc(S(=O)(=O)N2CCC(C(=O)N3CCCC3)CC2)cc1 the results were HPGD inh -10.5%.
`COc1ccc(NC(=O)/C(Cl)=C(/Cl)S(=O)(=O)Cc2ccccc2)cn1` gave HPGD inh -27.1%.
Cc1ccnc2nc(C(=O)Nc3nnc(CC(C)C)s3)nn12 was read as HPGD inh -8.9%.
Screening COC(=O)c1[nH]c2cccc(OC)c2c1NC(=O)CN1CCOCC1 returned HPGD inh -27.6%.
`CN(c1ccccc1)c1ccc(/C=N/N2CCOCC2)cc1` gave HPGD inh -21.8%.
Screening COc1cc(/C=N/NC(=O)C(=O)NCC2CCCO2)ccc1O (configuration not stated) returned HPGD inh -17.2%.
c1ccc(CCc2ccccc2-c2nc(-c3ccccn3)no2)cc1 was read as HPGD inh -6.2%.
Screening CCCCCOc1ccc(CN2CCOCC2)cc1Cl returned HPGD inh inconclusive.
`O=C(CN(Cc1ccc2c(c1)OCO2)C(=O)CNS(=O)(=O)c1ccccc1)NCc1ccco1` gave HPGD inh -8.7%.
For CCCOc1ccc(C(=O)NCCCn2ccnc2)cc1 the results were HPGD inh -7.9%.
Screening Cc1cccc(OCC(=O)Nc2ccc3c(c2)OCCO3)c1 returned HPGD inh -18.0%.
CC(=O)Nc1ccc(N=Cc2ccc(OCc3ccccc3)cc2)cc1 was read as HPGD inh -12.6%.
For COc1cc(CC(=O)O)ccc1O the results were HPGD inh 6.6%.
For CCOC(=O)N1CCC(NC(=O)C2CCCN(c3nc4ccccc4o3)C2)CC1 (configuration not stated) the results were HPGD inh 2.6%.
For OCC(Cc1ccccc1)Nc1c2ccccc2nc2ccccc12 (configuration not stated) the results were HPGD inh -12.5%.
C=C(C)CC1N(c2cccc(OC)c2)C(=O)C2C(C(=O)O)C3C=CC21O3 (configuration not stated) was read as HPGD inh -8.0%.
O=C(COC(=O)CCSc1ccc(Cl)cc1)NCc1ccc(Cl)cc1 was read as HPGD inh -27.5%.
`CCCCN1CC(O)=C(c2nc(-c3ccc(Cl)cc3)cs2)C1=N` gave HPGD inh -6.9%.
O=C1CNC(=S)N1c1nc(-c2ccccc2)cs1 was read as HPGD inh -26.1%.
`CS(=O)(=O)N(CC(=O)Nc1ccc(C(N)=O)cc1)C1CCCCC1` gave HPGD inh -12.8%.
`CO/N=C(/C(=O)NC1C(=O)N2C(C(=O)O)=C(COC(N)=O)CSC12)c1ccco1` (configuration not stated) gave HPGD inh -13.4%.
For Cc1cc(C)n(-c2cc(-n3nc(C)cc3C)ncn2)n1 the results were HPGD inh -17.1%.
Cc1ccc(OCCNC(=O)c2cccc(Oc3ccc(C(F)(F)F)cc3[N+](=O)[O-])c2)cc1 was read as HPGD inh -27.9%.
CC(=O)NC(Cc1ccccc1C)C(=O)NC1CCN(c2ncccc2[N+](=O)[O-])CC1 (configuration not stated) was read as HPGD inh -9.3%.
CCN(CC)C(=O)C1CCCc2c1[nH]c1ccc(Cl)cc21 (configuration not stated) was read as HPGD inh -29.4%.
For Nc1[nH]c(N=NC(=O)c2ccccc2O)c2ccccc12 the results were HPGD inh -18.9%.
Screening CCOC(=O)C1CN(S(=O)(=O)c2ccc(OC)cc2)c2cc(S(=O)(=O)CC)ccc2O1 (configuration not stated) returned HPGD inh -0.9%.
For CC(C)(C)c1ccc(C(=O)Nc2cnccn2)cc1 the results were HPGD inh -5.8%.
`CCOC(=O)Nc1ccc(C(=O)Oc2ccccc2)c(O)c1` gave HPGD inh inconclusive.
For O=C(O)C1Nc2c(C(=O)N3CCOCC3)cccc2C2C=CCC12 (configuration not stated) the results were HPGD inh 25.1µM*.
COc1ccc(CC(=O)c2cc(OC)c(OC)cc2CC(=O)O)cc1OC was read as HPGD inh -4.6%.
`COc1ccccc1NC(=O)NC(=O)N(C(C)C)S(C)(=O)=O` gave HPGD inh -14.2%.
`C1=Nc2c(Nc3ccccc3)ncnc2Oc2ccccc21` gave HPGD inh -11.5%.
O=C(CSc1nnc(SCc2cccc3ccccc23)s1)N=Nc1c(O)[nH]c2ccccc12 was read as HPGD inh -24.1%.
For O=C(c1cnn2c(C(F)(F)F)cc(-c3cccs3)nc12)N1CCN(Cc2ccccc2)CC1 the results were HPGD inh -7.8%.
`O=c1oc2cc(OCc3ccc(F)cc3F)ccc2cc1-c1ccccn1` gave HPGD inh inconclusive.
For CC(C)(C)N1CC(c2nc3ccccc3n2Cc2ccc(F)cc2)CC1=O (configuration not stated) the results were HPGD inh 2.5%.
Cc1c(Cl)cccc1NC(=S)NCCC(c1ccccc1)c1ccccc1 was read as HPGD inh -18.7%.
`CC(C)(C)Cc1nnc(NS(=O)(=O)Cc2ccccc2)s1` gave HPGD inh -19.2%.
Cc1ccnc(NC(=O)c2cc(S(=O)(=O)N3CCCCC3)ccc2Cl)c1 was read as HPGD inh -23.1%.
Screening O=C(NCC(=O)N(CC1CCCO1)C(C(=O)NC1CCCCC1)c1ccccc1)c1cccs1 (configuration not stated) returned HPGD inh 4.6%.
Screening CC(=O)c1ccc(-n2nncc2C(C)(C)C)cc1 returned HPGD inh -17.7%.
For Nc1nc2n(n1)C1(CCCCC1)C1=C(CCCC1)N2 the results were HPGD inh -1.0%.
For CC1(C)CC(=O)c2cnc(NC(=O)Cc3ccc(Cl)cc3)nc2C1 the results were HPGD inh -13.6%.
For CCn1c(SCC(=O)Nc2nc(-c3ccccc3)cs2)nnc1-c1ccccc1 the results were HPGD inh -9.6%.
Cc1ccc(/C=N/N2CCN(Cc3cccc4ccccc34)CC2)s1 was read as HPGD inh -15.2%.
For CC(/C=C1\SC(=S)N(CCCC(=O)Nc2ccc(C(=O)O)cc2)C1=O)=C\c1ccccc1 the results were HPGD inh -14.5%.
C[C@@H](O)CNC(C)(C)CC(=O)N[C@@H]1CCc2ccccc2N(Cc2ccc(-c3ccccc3-c3nn[nH]n3)cc2)C1=O was read as HPGD inh 0.5%.
For O=C(CSc1nnc(-c2ccccc2)n1C1CCCCC1)Nc1ccc(S(=O)(=O)Nc2ccccn2)cc1 the results were HPGD inh inconclusive.
COc1ccc(C2SCCN2S(=O)(=O)c2ccccc2)cc1OC (configuration not stated) was read as HPGD inh -7.0%.
Screening CCn1c(C)c(C(C)=O)c(N2CCN(C(=O)c3ccco3)CC2)nc1=S returned HPGD inh -4.8%.
`Cc1ccc(N2C(=O)CSCC2=O)cc1` gave HPGD inh -10.2%.
O=C(Nc1ccccc1)N(Cc1ccccc1)C1=NCCS1 was read as HPGD inh -4.3%.
For C[N+]1(CCC(=O)c2ccco2)CC2CCC(CC2)C1 (configuration not stated) the results were HPGD inh -0.4%.
Screening Cc1ccc(S(=O)(=O)C2(C(=O)N3CCN(C4CCCCC4)CC3)CC2)cc1 returned HPGD inh -4.4%.
CCCn1nc2cc(C(=O)NCC34CC5CC(CC(C5)C3)C4)ccc2c1OCC was read as HPGD inh inconclusive.
`CC(C)n1nc(C(=O)Nc2nnc(SCc3c(Cl)cccc3Cl)s2)c2ccccc2c1=O` gave HPGD inh -22.8%.
Screening Oc1ccc(NCc2ccccc2OCc2ccccc2)cc1 returned HPGD inh 14.1µM*.
Screening CCC(=O)N1C(C(=O)O)CSC1c1ccc(OC)cc1 (configuration not stated) returned HPGD inh -3.1%.
COc1cc(C(=O)N2CC(C)OC(C)C2)c([N+](=O)[O-])cc1OC (configuration not stated) was read as HPGD inh 0.2%.
`CC(C)(C)C(=O)N1CCC[C@@]1(CO)C(=O)O` gave HPGD inh -2.2%.
O=C(NC1CCCC1)C(c1cccnc1)N(C(=O)c1csnn1)C1CCCC1 (configuration not stated) was read as HPGD inh 4.8%.
For Cc1ccc(Oc2ccccc2/C=N/O)cc1 the results were HPGD inh -28.8%.
C=C(Br)CN(C)CC(=C)Br was read as HPGD inh -1.2%.
Screening O=C(Cc1cccc2ccccc12)N/N=C/c1ccc(OC(=O)/C=C/c2ccco2)cc1 returned HPGD inh -13.4%.
Screening Cc1ccc(S(=O)(=O)n2nc(C)cc2C)cc1 returned HPGD inh -5.2%.
CCN1CCN(CCNC(=O)C2CCCN(Cc3nc(-c4cccc(Cl)c4)oc3C)C2)CC1 (configuration not stated) was read as HPGD inh -11.1%.
Screening O=C(C1CCC1)N1CCc2cc(S(=O)(=O)NCc3ccccn3)ccc21 returned HPGD inh -11.0%.
`COc1ccc(S(=O)(=O)Nc2ccc(C(F)(F)F)cc2)cc1OC` gave HPGD inh -3.3%.
Screening N#Cc1c2n(c3c(=S)nc[nH]c13)CCCCC2 returned HPGD inh -26.6%.
For COC(=O)C1=C(C)NC(C)=C(C(=O)OC)C1c1ccccc1OCc1c(C)no[n+]1[O-] the results were HPGD inh -21.6%.
For CCOC(=O)C(NC(C)=O)(N1CCc2ccccc2C1)C(F)(F)F (configuration not stated) the results were HPGD inh -4.2%.
`Cc1ccnc2nc(C(=O)Nc3nccs3)nn12` gave HPGD inh -4.7%.
Screening Cc1ccc(OCC(=O)N/N=C/c2cn(Cc3ccccc3)c3ccccc23)cc1 returned HPGD inh -16.0%.
Screening COc1ccc(S(=O)(=O)Nc2ccccc2SC)cc1C returned HPGD inh -7.3%.
For CC1CCCC(NC(=S)NC(=O)c2cncc(Br)c2)C1C (configuration not stated) the results were HPGD inh -11.6%.
Screening COC(=O)[C@@]1(Cc2ccc(F)cc2)[C@H]2c3cc(C(=O)N4CCCC4)n(Cc4ccc(C(F)(F)F)nc4)c3C[C@H]2CN1C(=O)c1ccccc1 returned HPGD inh -18.1%&-12.5%.
For O=C(NCCn1ccc2ccccc21)c1ccc(S(=O)(=O)N2CCOCC2)cc1 the results were HPGD inh -0.4%.
For O=C(c1cc(-c2ccccc2)nc2ccccc12)N1CCN(c2ccccn2)CC1 the results were HPGD inh -8.2%.
N#Cc1c(SCC(N)=O)nc(-c2ccccc2)c2c1CCCC2 was read as HPGD inh -6.7%.
O=C(c1ccco1)N1CCC2(CCN(Cc3ccncc3)CC2)CC1 was read as HPGD inh -8.5%.
`CCOc1ccc(N(CC(=O)OC)S(=O)(=O)c2ccc(OC)c(OC)c2)cc1` gave HPGD inh -2.2%.
`Cc1cccc(N2CCN(Cc3ccoc3)CC2)c1C` gave HPGD inh 14.1µM*.
Screening O=C(Nc1ccc2c(c1)OCO2)c1cccc(F)c1 returned HPGD inh -17.6%.
For O=C(C1CC1)N1CCc2cc(Br)cc(S(=O)(=O)N3CCCCCC3)c21 the results were HPGD inh -11.1%.
`COc1ccc(-n2c(Cn3c(=O)sc4ccccc43)nnc2SCC(=O)N2CCCC2)cc1` gave HPGD inh -6.3%.
`COC(=O)[C@@]1(Cc2ccc(OC)cc2)[C@H]2c3cc(C(=O)N(C)C)n(CCc4c[nH]c5ccc(O)cc45)c3C[C@H]2CN1C(=O)c1ccccc1` gave HPGD inh -5.4%.
For Fc1ccccc1COc1ccc(/C=N/NC(=S)NCc2ccccc2)cc1 the results were HPGD inh -18.3%.
COc1ccc(-n2c(SCc3ccc([N+](=O)[O-])cc3)nnc2-c2ccc(C)cc2)cc1 was read as HPGD inh -24.4%.
Screening COc1ccc(CCNC(=O)Cn2cc(C(F)(F)F)cc(Cl)c2=O)cc1 returned HPGD inh -11.6%.
For CCCn1c(C)cc(C(=O)COC(=O)c2cc(S(=O)(=O)NCC(C)C)c(Cl)cc2Cl)c1C the results were HPGD inh -9.3%.
Screening CC(=O)N1N=C(c2ccco2)CC1c1ccc(C)cc1 (configuration not stated) returned HPGD inh -7.9%.
Screening COc1cc(Br)cc2cc(C(=O)N3CCN(C(=O)c4ccco4)CC3)c(=O)oc12 returned HPGD inh -18.5%.
Cc1cc2c(=O)n(Cc3ccco3)c(SCC(=O)c3ccc(Cl)s3)nc2s1 was read as HPGD inh 28.2µM*.
For O=C(c1csnn1)N1CCC2(CC1)CCN(c1ccncc1)CC2 the results were HPGD inh -2.6%.
`Cc1cc(C)c(C#N)c(Nc2ccc3c(c2)OCCO3)n1` gave HPGD inh -28.7%.
CC1CCc2cc(F)ccc2N1C(=O)CSc1nnc2c3ccccc3n(C)c2n1 (configuration not stated) was read as HPGD inh -15.6%.
COc1ccc(-n2c(C)cc(C(=O)CSc3nnc(-c4ccoc4C)n3C)c2C)cc1 was read as HPGD inh -4.6%.
`COc1ccc(-c2nc(SC(CC(=O)NCc3ccccc3)c3ccc(OC)c(OC)c3)n[nH]2)cc1` (configuration not stated) gave HPGD inh -9.5%.
For Cn1c(=O)c2c3c(sc2n2c(SCc4ccc5c(c4)OCO5)nnc12)COC(C)(C)C3 the results were HPGD inh -9.6%.
`CC1CCc2nn(CC(=O)NCc3ccc4c(c3)OCO4)cc2C1` (configuration not stated) gave HPGD inh -0.2%.
For COc1cc2c(C)nc3onc(-c4ccccc4)c3c2cc1OC the results were HPGD inh inconclusive.
C=CCn1c(C)cc(C(=O)COC(=O)CNC(=O)c2ccccc2)c1C was read as HPGD inh 0.0%.
CC1(C)CC(=O)C2=C(C1)N=C1SCCC(=O)N1C2c1ccccc1 (configuration not stated) was read as HPGD inh -14.4%.
`CCn1cc(C(=O)NC(C)C23CC4CC(CC(C4)C2)C3)cn1` (configuration not stated) gave HPGD inh -7.3%.

Arranged by length of the SMILES (rising): 4 of the compounds above.
`CC1CCc2nn(CC(=O)NCc3ccc4c(c3)OCO4)cc2C1` (configuration not stated) gave HPGD inh -0.2%.
`CCn1cc(C(=O)NC(C)C23CC4CC(CC(C4)C2)C3)cn1` (configuration not stated) gave HPGD inh -7.3%.
CC1(C)CC(=O)C2=C(C1)N=C1SCCC(=O)N1C2c1ccccc1 (configuration not stated) was read as HPGD inh -14.4%.
`COc1ccc(-c2nc(SC(CC(=O)NCc3ccccc3)c3ccc(OC)c(OC)c3)n[nH]2)cc1` (configuration not stated) gave HPGD inh -9.5%.

High-throughput results (PubChem)
